Screening data from PubChem.
StopGo FLuc: Primary qHTS Assay for Foot and Mouth Disease Virus Antivirals against NCGC Sytravon and CBC Compound Libraries: Firefly Luciferase Signal | HEK cells with a luciferase reporter of 2A StopGo recoding | 120,000 tested, 0.23% active | Potency, µM (series often up to 57.5 µM), for the others: top-dose signal change, negative = less light | AID 1745856, 2022; active = well fitted falling curve with a large enough effect; inconclusive = small, poorly fitted or top-dose-only effect; inactive = no such curve, though single readings can be large or run the other way; also: nearly all actives have a fitted effect of over 60% in size; overnight with compound
StopGo RLuc: Primary qHTS Assay for Foot and Mouth Disease Virus Antivirals against NCGC Sytravon and CBC Compound Libraries: Renilla Luciferase Signal; HEK cells with a luciferase reporter of 2A StopGo recoding; Potency, µM (titrated, usually from 57.5 µM), for the others: top-dose signal change, negative = less light; 120,000 tested, 0.32% active; AID 1745857, 2022; active means well fitted falling curve with a large enough effect; inconclusive means small, poorly fitted or top-dose-only effect; inactive means no such curve, though single readings can be large or run the other way; also: nearly all actives have a fitted effect of over 55% in size; overnight with compound
* marks the source's active call; other numbers are inactive results; u = inconclusive; & = joins results of further samples; [ ] = dose if it differs, or a comment. % is scaled to controls: 0 for no effect and ±100 for the full control effect; potency is read from the fitted curve at half-maximal effect.

The line under a structure holds: StopGo FLuc	StopGo RLuc
CC(C)(O)C#Cc1ccc(C(=O)N2CCN(Cc3ccccc3)CC2)cc1
→ -14%	u
O=C(CC(c1ccccc1)c1ccccc1)Nc1ccc(Oc2ccccc2)cc1
→ -15%	31%
COCCn1c(=O)[nH]c2cc(C(=O)Nc3ccc(OC)cc3)ccc2c1=O
→ -7%	-11%
CCCNc1c(NC(=O)NC2(CC(=O)OCC)CCCCC2)c(=O)oc2ccccc12
→ 10%	17%
Cc1ccc(-c2cnc(-c3ccc(Br)cc3)o2)cc1
→ 144%[activator]	18%
Cc1cc(C)cc(NC(=O)Cc2c[nH]c3ccccc23)c1
→ 6%	-2%
CC(C)c1ccc(C(=O)NC(=S)NCCCO)cc1
→ 164%[activator]	0%
Cc1ccc(SCc2ccc(C(=O)Nc3ccc(C)cc3C)cc2)cc1
→ 3%	2%
Cn1c(=O)[nH]c(=O)c2c1nc(CN1CCOCC1)n2Cc1ccc(F)cc1
→ -7%	-11%
CCN1CCCC1CNC(=O)c1cc(=O)[nH]c2ccccc12 (stereo not given)
→ 6%	2%

The line under a structure holds: StopGo FLuc	StopGo RLuc
Cc1ccc2c(c1)N(CC(=O)NCCCN1CCCCC1C)C(=O)c1cccnc1O2 (stereo not given)
→ 3%	-11%
Nc1nc(Nc2ccc(Cl)c(Cl)c2)nc(-c2cc3ccccc3o2)n1
→ 0%	-2%
COc1ccc(C(=O)NCCn2cc(SCC(=O)Nc3ccccc3)c3ccccc32)cc1OC
→ -10%	53%[activator]
CC(N=C1NS(=O)(=O)c2ccccc21)C(=O)NCCc1cccs1 (stereo not given)
→ 7%	22%
Cc1ccc(-c2nc3ccc(C)cn3c2CC(=O)N(C)C)cc1
→ 12%[11.5 µM]	5%
Cc1cccc(-n2c(SCC(=O)c3ccccc3)nnc2-c2ccc(Br)cc2)c1
→ -11%	-6%
CN1C(C(=O)Nc2cccc(O)c2)=CC(c2cccs2)=NS1(=O)=O
→ -7%	54%[activator]
CCC(CC)C(NC(=O)CNC(=O)C1CC1)c1cccs1 (stereo not given)
→ -2%	254%[activator]
CCc1ccccc1NC(=O)CCc1ncc(-c2ccc(F)cc2F)o1
→ 22%	2%
CC(C)C(=O)Nc1nnc2n1CCS2
→ -15%	-12%

The line under a structure holds: StopGo FLuc	StopGo RLuc
COc1ccc(S(=O)(=O)Oc2ccc3c(c2)O/C(=C\c2ccc(C(C)C)cc2)C3=O)cc1
→ -2%	u
CCOc1ccc2c(c1)c(=O)c(S(=O)(=O)c1ccccc1)cn2CC(=O)Nc1ccccc1OC
→ -8%	22%
Cc1ccc(S(=O)(=O)N(CC(=O)N2CCN(C)CC2)Cc2ccc(Cl)cc2)cc1
→ 11%	29%
Cc1cc(C)n2ncc(-c3noc(C(=O)NCCO)n3)c2n1
→ -6%	-9%
Cc1ccc(CNC(=O)c2c[nH]n3c(=O)c(Cc4ccc(Cl)cc4)c(C)nc23)cc1
→ -17%	29%
COc1ccc(Br)cc1CNC(=O)c1cnc2sc(N3CCCC3)nn2c1=O
→ -9%	-6%
Cc1ccc(C)c(NC(=O)CN(C)S(=O)(=O)c2cccc3cccnc23)c1
→ 0%	0%
CCCCn1c(=O)[nH]c(=O)c2c1nc(CN1CCN(S(=O)(=O)c3ccccc3)CC1)n2C
→ 14%	6%
CC(C)(CN(CCO)CCO)NS(=O)(=O)c1ccccc1
→ -2%	-5%
CC(=O)NCCNC(=O)CCCc1nnc2n(CC(C)C)c(=O)c3sccc3n12
→ -13%	-6%

The line under a structure holds: StopGo FLuc	StopGo RLuc
O=C(CSc1ccccc1Cl)NC(=O)C1CCCCC1
→ 12%	5%
CN(CC(=O)NC1(C#N)CCCC1)Cc1ccco1
→ 14%	26%
COc1ccc(S(=O)(=O)N2CCCCC2)cc1C(=O)NC1CCS(=O)(=O)C1 (stereo not given)
→ -17%	-3%
C=CCNc1nc(C(=O)OCC(=O)Nc2ccccc2)cs1
→ 23%	6%
CC(=O)C1=C(OC(=O)c2ccc(F)cc2)c2ccccc2S(=O)(=O)N1C(C)C
→ 5%	27%
C=C(C)CN1CCN(c2nc3c(c(=O)[nH]c(=O)n3C)n2Cc2cc(C)ccc2C)CC1
→ 1%	-5%
COc1ccccc1Oc1coc2cc(OC(=O)c3ccc(F)cc3)ccc2c1=O
→ -8%	-18%
CCN(CC)CC1CCN(C(=O)c2cccc(C#N)c2)CC1
→ 0%	8%
COc1cc(-c2nc3sccn3c2Nc2cccc(C)c2)ccc1O
→ 157%[activator]	3%
COC(=O)N/N=C/c1ccc(OCCCOc2ccc(Cl)cc2)cc1
→ u	u

The line under a structure holds: StopGo FLuc	StopGo RLuc
N#Cc1ccc(N2CCC(C(=O)Nc3nc(C4CC4)cs3)CC2)nc1
→ 72%[activator]	-8%
CCOc1ccc(OCC)c(NC(=O)c2cnn(-c3ccc(F)cc3)c2-n2cccc2)c1
→ -1%	-5%
COCCNc1oc(-c2ccco2)nc1S(=O)(=O)c1ccc2c(c1)OCCO2
→ 25%	203%[activator]
CCc1nonc1NC(=O)c1oc2ccc(F)cc2c1C
→ 71%[activator]	4%
CCCNC(=O)c1cn(-c2cccc(Cl)c2)nn1
→ 81%[activator]	7%
O=C(COc1ccccc1)Nc1nc2n(n1)C(c1ccc(Cl)cc1)CC(=O)N2 (stereo not given)
→ 2%	-11%
CC(C)c1ccc(NC(=O)CSC2=Nc3ccccc3C3=NC(CCC(=O)NCc4ccco4)C(=O)N23)cc1 (stereo not given)
→ -13%	16%
N#Cc1cccc(COC(=O)c2ccc(N3CCOCC3)nc2)c1
→ -9%	-3%
COc1ccc(-c2ccc(C(=O)O)cc2)cc1
→ 73%[activator]	-7%
Cc1ccc(C(=O)NCC(=O)NCC#Cc2cccc(C(F)(F)F)c2)cc1
→ -5%	0%

The line under a structure holds: StopGo FLuc	StopGo RLuc
Cc1c(Cc2ccccc2)c(=O)oc2cc(OS(C)(=O)=O)ccc12
→ u	u
O=C(Nc1ccccc1N1CCOCC1)c1cncc(Br)c1
→ -15%	-7%
O=C(c1cc2cc([N+](=O)[O-])ccc2oc1=O)N1CCN(c2ccccc2)CC1
→ 2%	-17%
COc1ccc(NC(=O)Cn2c(=O)c3ccccc3n3nncc23)cc1Cl
→ -18%	-11%
COc1ccc(C(C)=O)cc1CSc1ccccc1C(=O)O
→ 1%	-4%
CCOC(=O)CSc1nc2ccc(NC(=O)c3ccc(C)cc3)cc2s1
→ 0%&54%	11%&2%
CC(NS(=O)(=O)c1ccc(C#N)cc1)c1cccs1 (stereo not given)
→ 3%	48%[activator]
NCCCS(N)(=O)=O
→ -3%	-4%
Cc1ccccc1-c1noc(-c2cc3ccccc3oc2=O)n1
→ 90%[activator]	-5%
COc1ccc(CCNC(=O)c2cc(=O)c3cc(C)cc(C)c3o2)cc1OC
→ -9%	6%

The line under a structure holds: StopGo FLuc	StopGo RLuc
Cc1ccc2c(c1)SC(C(=O)O)C2 (stereo not given)
→ 12%	17%
COc1ccc(N2CCN(S(=O)(=O)c3cc(Br)cc4c3N(C(=O)C3CC3)CC4)CC2)cc1
→ -4%	28%
CC1CCN(S(=O)(=O)c2ccc3c(c2)N(CC(=O)NC(C)(C)C)C(=O)CS3)CC1
→ -22%	3%
CCC(=O)Nc1nc2c(C)cc(NC(=O)Nc3ccccc3OC)cc2s1
→ 35%[activator]	0%
Cc1ccc(CN2CCN(c3nc4c(c(=O)[nH]c(=O)n4C)n3Cc3ccc(C)cc3)CC2)cc1
→ 7%	3%
CC1CCCN(S(=O)(=O)c2ccc(-c3nc(C#N)c(NCCc4ccccc4)o3)cc2)C1 (stereo not given)
→ 25%	74%[activator]
COc1ccccc1NC(=O)c1ncn(-c2ccccc2)n1
→ 85%[activator]	-15%
O=C(Nc1ccc(C23CC4CC(CC(c5ccccc5)(C4)C2)C3)cc1)c1ccc(-c2ccccc2)cc1
→ 0%	15%
CCN(CC)c1nc2ccccc2nc1C(=O)Nc1cc(F)ccc1F
→ 3%	4%
CNC(=O)NC(=O)C(c1ccccc1)N(C)Cc1ccc(C)cc1 (stereo not given)
→ 7%	2%[1.06 µM]

The line under a structure holds: StopGo FLuc	StopGo RLuc
CCOc1ccc(-c2cn(-c3ccc(C)cc3)c(SCC(=O)Nc3ccc(C)cc3)n2)cc1
→ -13%	-12%
Cc1cc(C)c(Cn2c(C3CC(=O)N(c4ccc(F)cc4)C3)nc3ccccc32)c(C)c1 (stereo not given)
→ -19%	6%
COc1ccc2[nH]c(C)c(CCNCC(C)(C)C)c2c1
→ -6%	1%
COc1ccc2c(Sc3ccc(C)cc3)c(C(=O)NC(C)C)[nH]c2c1
→ 0%	36%[activator]
Cc1ccc(-n2nnc(-c3nc(-c4cccs4)no3)c2N)cc1C
→ 0%	-5%
Clc1ccc(C2NCc3ccccc3-n3cccc32)cc1 (stereo not given)
→ -12%	u
Cc1c(C(=O)NCc2ccccc2Br)oc2c1-c1[nH]ncc1CC2
→ 17%	18%
CN1CCN(c2oc(/C=C/c3ccc(F)cc3)nc2C#N)CC1
→ 36%[activator]	-9%
COc1cccc(C(=O)Nc2sc3c(c2C(N)=O)CCC(C)C3)c1OC(F)F (stereo not given)
→ 0%	0%
CCCOC(=O)c1ccc(Cn2nnc3sc4c(c3c2=O)CCC(C)C4)cc1 (stereo not given)
→ -4%	-1%

The line under a structure holds: StopGo FLuc	StopGo RLuc
Cc1cc(C)c(/C=N/NC(=O)C(c2ccccc2)c2ccccc2)c(C)c1
→ 3%	6%
c1ccc2nc(-c3nnc4sc(-c5ccncc5)nn34)ccc2c1
→ 40%[activator]	17%
CCOC(=O)C(C(=O)O)C1CCCCC1 (stereo not given)
→ 13%	-7%
Cc1cc(C)cc(-n2nnc(C(=O)NC(C)C)c2N)c1
→ 25%	1%
CNS(=O)(=O)c1ccc(Oc2ccc3c(C)cc(=O)oc3c2)c([N+](=O)[O-])c1
→ -19%	17%
Cc1ccc2c(-c3cc4ccccc4o3)cc(=O)oc2c1C
→ 0%	-2%
Cc1ccc(SCc2nc(-c3ccc(C(=O)NCCc4ccc(Cl)cc4)cc3)oc2C)cc1
→ -14%	-17%
N#Cc1ccccc1Cn1c(=O)n(CCCC(=O)NCc2ccccc2Cl)c(=O)c2ccccc21
→ 57%[activator]	71%[activator]
O=C(COC(=O)c1ccccc1C(=O)c1ccc(Cl)c([N+](=O)[O-])c1)NC12CC3CC(CC(C3)C1)C2
→ 11%	1%
CC1=C(C(=O)Nc2ccccc2)C(c2ccc(O)cc2)n2nc(SCc3ccccc3)nc2N1 (stereo not given)
→ -18%	-6%

The line under a structure holds: StopGo FLuc	StopGo RLuc
Cc1cccc(-c2nc(CSc3nncn4c3cc3sccc34)c(C)o2)c1
→ -7%	-13%
CC(C#N)CN(C)C(=O)/C=C/c1ccsc1 (stereo not given)
→ 41%[activator]	4%
COc1ccc(NC(=O)CCCc2nc(-c3ccco3)no2)c(OC)c1
→ -3%	241%[activator]
C[C@H]1COc2cc(Br)ccc2S(=O)(=O)N1Cc1cn(Cc2ccco2)nn1
→ 5%	12%
CCc1ccccc1NC(=O)N1CCN(c2cc(-c3noc(C)n3)ccc2C)CC1
→ -10%	-6%
O=C(NCc1cccnc1)c1ccc2c(c1)N(Cc1ccccc1)C(=O)c1ccccc1S2=O (stereo not given)
→ 1%	35%[activator]
Cc1cccc(-n2c(=O)c3c4c(sc3n3cnnc23)CCCC4)c1
→ 14%&-15%	15%&-15%
Cc1ccc(CN(C)C(C)C(=O)NCc2cccs2)cc1 (stereo not given)
→ -13%	-4%
O=C(COC(=O)c1cc2ccccc2cc1O)Nc1ccc(F)cc1
→ 34%[activator]	-1%
Cn1cc(S(=O)(=O)c2ccc(Cl)cc2)c(=O)c2cc(F)c(N3CCCCCC3)cc21
→ -4%	8%

The line under a structure holds: StopGo FLuc	StopGo RLuc
N#Cc1cn(CC(=O)Nc2cc(F)ccc2F)c2ccccc12
→ 79%[activator]	-6%
COC(=O)c1ccc(Cn2c(SCc3ccc(F)cc3)nc3ccncc32)cc1
→ -17%	-20%
Cc1cc2ccccc2n1CCNC(=O)c1ccccc1F
→ 87%[activator]	1%
CCC1CCCCN1S(=O)(=O)c1ccc(NC(=O)c2cc(=O)c3cc(C)cc(C)c3o2)cc1 (stereo not given)
→ 5%	-4%
Cc1cccc(-c2nnc(SCc3cc(=O)c4cccc(Cl)c4[nH]3)n2C)c1
→ u	u
COc1ccccc1C(=O)Nc1ccc2oc(=O)ccc2c1
→ 187%[activator]	47%[activator]

Structures shown so far that have a cyano group, in the order listed:
The line under a structure holds: StopGo FLuc	StopGo RLuc
CN(CC(=O)NC1(C#N)CCCC1)Cc1ccco1
→ 14%	26%
CCN(CC)CC1CCN(C(=O)c2cccc(C#N)c2)CC1
→ 0%	8%
N#Cc1ccc(N2CCC(C(=O)Nc3nc(C4CC4)cs3)CC2)nc1
→ 72%[activator]	-8%
N#Cc1cccc(COC(=O)c2ccc(N3CCOCC3)nc2)c1
→ -9%	-3%
CC(NS(=O)(=O)c1ccc(C#N)cc1)c1cccs1 (stereo not given)
→ 3%	48%[activator]
CC1CCCN(S(=O)(=O)c2ccc(-c3nc(C#N)c(NCCc4ccccc4)o3)cc2)C1 (stereo not given)
→ 25%	74%[activator]
CN1CCN(c2oc(/C=C/c3ccc(F)cc3)nc2C#N)CC1
→ 36%[activator]	-9%
N#Cc1ccccc1Cn1c(=O)n(CCCC(=O)NCc2ccccc2Cl)c(=O)c2ccccc21
→ 57%[activator]	71%[activator]
CC(C#N)CN(C)C(=O)/C=C/c1ccsc1 (stereo not given)
→ 41%[activator]	4%
N#Cc1cn(CC(=O)Nc2cc(F)ccc2F)c2ccccc12
→ 79%[activator]	-6%
